Arbovirus inh = antivirals against arbovirus infection, primary screen, cell-based, full library, 10K replicate subset; 0.37% of 200,000 active; inhibition, % at 10 µM; arbovirus infection cell-based antiviral screen; AID 1251, 2008;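 active = inhibition from about 30%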;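 also: bluetongue infection of BSR cells; cell survival read as ATP light after 72 h; 0% = infected wells without compound and 100% = uninfected wells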
RecA intein inh = Mtb RecA intein splicing inhibitors, primary screen, biochemical, fluorescence, HTS | AID 2221, 2009 | 0.75% of 290,000 active | cell-free RecA intein splicing | inhibition, %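 (about 9 µM by stock and volumes)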; in the data active = inhibition above about 30%; inconclusive = no clear call, values can overlap the other calls;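 also: 0% = vehicle wells and 100% = reference inhibitor control wells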
Target sequence (P9WHJ3 whole entry, looked up): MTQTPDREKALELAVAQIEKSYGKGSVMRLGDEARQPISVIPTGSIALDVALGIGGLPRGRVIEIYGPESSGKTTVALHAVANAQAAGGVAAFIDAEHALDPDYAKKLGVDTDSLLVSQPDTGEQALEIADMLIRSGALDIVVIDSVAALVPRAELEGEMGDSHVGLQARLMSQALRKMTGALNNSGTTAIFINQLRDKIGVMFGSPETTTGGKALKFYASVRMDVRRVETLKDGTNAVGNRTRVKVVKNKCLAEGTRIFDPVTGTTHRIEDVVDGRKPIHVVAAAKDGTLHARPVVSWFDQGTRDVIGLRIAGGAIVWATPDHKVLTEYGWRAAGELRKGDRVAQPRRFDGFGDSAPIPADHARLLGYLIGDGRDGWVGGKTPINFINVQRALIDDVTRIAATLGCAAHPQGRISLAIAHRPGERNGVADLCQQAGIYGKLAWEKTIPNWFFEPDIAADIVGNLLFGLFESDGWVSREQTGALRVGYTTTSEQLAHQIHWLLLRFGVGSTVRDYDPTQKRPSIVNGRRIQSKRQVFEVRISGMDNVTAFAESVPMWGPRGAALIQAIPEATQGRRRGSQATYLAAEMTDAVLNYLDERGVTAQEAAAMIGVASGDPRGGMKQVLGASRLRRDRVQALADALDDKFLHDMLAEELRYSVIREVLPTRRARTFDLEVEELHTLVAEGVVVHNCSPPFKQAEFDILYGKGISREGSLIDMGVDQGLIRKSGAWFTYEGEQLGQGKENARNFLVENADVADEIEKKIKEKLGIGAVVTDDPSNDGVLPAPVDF
YopH PTP inh = YopH tyrosine phosphatase inhibitors, primary screen, biochemical, fluorescence Ex485/Em525 | inhibition, %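 (about 10 µM by stock and volumes)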 | 0.16% of 140,000 active | AID 898, 2007;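 active = inhibition of 50% or more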;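 also: controls were vehicle for no effect and minimum signal wells for full effect; inactives centre near -20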
Mtb bLac sens = beta-lactam sensitization of Mtb H37Rv, H37Rv; 0.27% of 330,000 active; AID 434955, 2010; inhibition, % at 25 µM; M. tuberculosis H37Rv growth with meropenem, percent inhibition; hits of this screen are not shown here;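 active = about 74% or more and at least 40 points above the plate without the antibiotic, then above 30% in a dose series; inconclusive = first-round hits that could not be retested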;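 also: growth measured after seven days incubation then overnight dye step; 0% = bacteria only wells and 100% = bacteria with antibiotic; twin plates without the antibiotic show which effects depend on it; some results filed as inactive read as strong as hits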
Mtb H37Rv = M. tuberculosis H37Rv growth inhibitors, H37Rv strain (AID 1626) | inhibition, % at 10 µM, or IC50 in µM where a hit was titrated | 0.95% of 220,000 active | M. tuberculosis H37Rv growth inhibition; higher % means a stronger effect;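 active = confirmed in a dose series; inconclusive = inhibition above 80% but not taken into the dose series; inactive = below 80% or under 30% at every dose of the series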;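 also: bacteria incubated seven days before Alamar blue readout; 0% = bacteria only wells and 100% = bacteria with antibiotic wells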
Arbovirus inh repeat = further read-out of Arbovirus inh, marked with its call; inhibition, %; measured here: 10K subset replicate screen; many hits read low in the repeat;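 first of two repeat runs on a subset; 0% = infected and 100% = uninfected wells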
* marks the source's active call; other numbers are inactive results; ? = inconclusive; nt = not tested or not shown. Some of the compounds tested; count on the stated rates, not on these rows.

SMILES | Arbovirus inh | RecA intein inh | YopH PTP inh | Mtb bLac sens | Mtb H37Rv | others
Cc1c(C(=O)N2CCCCC2)nn(-c2ccc(Cl)cc2)c(=O)c1C#N | -7.6 | 22.2 | nt | -2.5 | 6.9%
CCCCn1c(N)c(N(CCOC)C(=O)c2cc(-c3ccco3)nc3ccccc23)c(=O)[nH]c1=O | nt | 0.4 | nt | -9.9 | nt
COc1ccc(-c2cnnc(N/N=C/c3ccc(O)cc3)n2)cc1 | -3.5 | -4.8 | nt | -1.7 | 0.2%
CC(=O)Nc1nc(NCc2ccccc2Cl)n(-c2ccccc2)n1 | nt | -0.4 | nt | 3.5 | nt
c1ccc(COc2cccc(CNCc3ccccn3)c2)cc1 | 4.6 | -1.6 | nt | 94.6 | 63.6%
Cc1ccc(NC(=O)O/N=C/c2c(C)nn(C(C)(C)C)c2C)cc1Cl | nt | -3.0 | nt | 75.0 | 49.1%
N#CC(C#N)=C(Nc1ccc(F)cc1)SCc1cccc(F)c1 | -10.9 | 15.3 | -14.3 | 0.8 | 6.8%
CN1CCc2nc(SCCOc3ccccc3)c(C#N)cc2C1 | -6.3 | -1.7 | 32.0 | -4.8 | -0.1%
CC(C)Cn1nc(NC(=O)c2ccco2)c2cc3ccccc3nc21 | nt | -67.0 | nt | 1.2 | 1.7%
CCCc1cc(=O)oc2cc(OCC(=O)Nc3cc(C)on3)ccc12 | 0.1 | 4.5 | -49.5 | 4.9 | 7.4%
CS(=O)(=O)NCC(c1cccnc1)N1CCN(c2ccccc2F)CC1 (stereo not given) | nt | 0.4 | nt | 1.4 | -7.8%
Cc1c(Cl)cccc1NC(=O)CC(Cc1ccccc1)C(=O)O (stereo not given) | nt | 0.2 | nt | -5.0 | nt
CC1CCN(Cc2cc(=O)oc3ccc4ccccc4c23)CC1 | nt | 8.3 | nt | -1.3 | -7.6%
O=C(NCCc1ccc(Cl)cc1)C1CC(=O)N(C2CCCC2)C1 (stereo not given) | nt | 2.9 | nt | -1.3 | nt
O=C(O)/C=C/c1ccc(S(=O)(=O)NCc2cccnc2)cc1 | nt | -0.8 | nt | 3.1 | -0.6%
O=C(O)CC(c1ccccc1)N1C(=O)c2cccc([N+](=O)[O-])c2C1=O (stereo not given) | nt | -32.9 | nt | 5.2 | nt
COCC(=O)Nc1ccc(S(=O)(=O)Nc2nccs2)cc1 | nt | 0.0 | nt | 5.6 | nt
COC(=O)c1ccc(CNC(=O)COC(=O)C23CC4CC(CC(C4)C2)C3)cc1 | -10.2 | -0.4 | -11.6 | -5.4 | -0.4%
COc1ccc2nc(NC(=O)CSc3n[nH]c(N)n3)sc2c1 | nt | -0.7 | nt | 6.3 | nt
O=c1[nH]nc(Sc2ncnc3sccc23)n1CCc1ccccc1 | -8.8 | 31.4* | -2.8 | 0.9 | nt
Cc1ccccc1N1CCN(S(=O)(=O)c2nnc(NC(=O)CC(C)C)s2)CC1 | nt | 0.3 | nt | -3.0 | nt
CCN(CC(=O)NCc1cccs1)C(=O)CCC(=O)c1ccc(F)cc1 | nt | 0.1 | nt | 5.5 | nt
CC(C)C(=O)Nc1nnc(SCC(=O)NCC2CCCO2)s1 (stereo not given) | -4.3 | -0.6 | nt | -0.8 | 4.2%
CC(C)C(NC(=O)c1ccccc1F)C(=O)NCCc1ccccn1 (stereo not given) | 5.4 | 0.5 | nt | -9.0 | 4.5%
CCOC(=O)c1ccccc1OC(=O)CS(=O)c1ccccc1[N+](=O)[O-] (stereo not given) | -2.1 | 10.6 | nt | 4.3 | -2.4%
Next part
SMILES | Arbovirus inh | RecA intein inh | YopH PTP inh | Mtb bLac sens | Mtb H37Rv | others
O=C(NCCc1ccccc1)C1=CCN(S(=O)(=O)c2ccccc2)CC1 | nt | 1.5 | nt | 3.5 | nt
COc1ccc(NC(=O)Nc2nc3ccccc3s2)cc1 | nt | 2.6 | nt | 5.9 | -6.9%
COC(CNC(=O)c1cc(-c2ccncc2)nc2ccc(S(=O)(=O)N3CCOCC3)cc12)OC | 0.6 | 0.2 | nt | 3.0 | -0.1%
O=C(O)c1ccc(NC(=O)c2cn(-c3ccccc3)nc2-c2ccccc2)cc1 | 6.0 | -3.2 | nt | 3.2 | 5.1%
CSc1ccc(CCNC(=O)c2ccc(CS(=O)Cc3ccc(Cl)cc3)o2)cc1 (stereo not given) | nt | 1.1 | nt | 97.7 | nt
COc1ccc(/C=N/NC(=O)c2c(C)nnn2-c2nonc2N)cc1OC | 0.9 | -3.2 | nt | 1.6 | -0.6%
O=C(NCCCn1ccnc1)/C(=C\c1ccc(Br)cc1)NC(=O)c1ccccc1 | nt | -6.7 | nt | -8.6 | nt
Cn1c(=O)c2c(ncn2CC(=O)Nc2cccc(S(=O)(=O)Nc3ccccc3F)c2)n(C)c1=O | 13.4 | 5.3 | nt | -6.4 | 7.7%
CCn1c(=O)c2sccc2n2c(CCCC(=O)NC3CCN(Cc4ccccc4)CC3)nnc12 | nt | -2.3 | nt | -0.5 | nt
CN(C)CCCN(C(=O)c1ccc(S(=O)(=O)N2CCc3ccccc32)cc1)c1nc2c(Cl)cccc2s1 | nt | 16.6 | nt | 9.2 | nt
CC(C)(C)OC(=O)NCCCCCC(=O)N/N=C/c1coc2ccccc2c1=O | nt | -2.4 | nt | 0.8 | -3.6%
CC(=O)Nc1ccc(S(=O)(=O)NNC(=O)c2ccc(C)cc2)cc1 | 4.2 | 1.4 | -4.0 | 6.5 | -13.4%
COc1ccc(C(=O)NNC(=O)C(=O)NC2CCCCC2)cc1 | nt | 4.2 | nt | 6.5 | nt
CNC(=O)C(=O)Nc1c(C)cc(C)cc1C | -8.5 | 7.2 | -29.9 | -2.4 | -3.0%
CC(C)[C@H](NC(=O)N1CCn2c1nc1ccccc12)C(=O)NCCc1ccccc1 | nt | -0.1 | nt | -2.6 | nt
Cc1cc2sc3nc(=O)n(-c4ccccc4)c(=O)n3c2cc1C | nt | 1.6 | nt | -1.7 | 0.9%
c1csc(-c2csc3nc(CN4CCOCC4)nc(NCc4ccc5c(c4)OCO5)c23)c1 | -31.6 | 17.9 | -11.5 | ? | -6.2%
CCc1cc2cc(C)c(C)cc2nc1SCC(=O)NNC(=O)c1ccco1 | -4.7 | -1.0 | -5.5 | -2.2 | -2.3%
CCCCN(C(=O)c1ccc2c(c1)OCCO2)c1c(N)n(CCCC)c(=O)[nH]c1=O | nt | -1.0 | nt | -7.0 | nt
Cc1nn(Cc2ccccc2Cl)c(C)c1NC(=O)Cn1nc([N+](=O)[O-])c(Cl)c1C | -4.8 | 0.9 | -19.6 | -6.2 | 3.7%
Cc1cccc(NC(=O)c2ccc(S(=O)(=O)N3CC(C)OC(C)C3)cc2)n1 (stereo not given) | nt | -2.5 | nt | 1.8 | nt
CCCCOc1ccc(C(=O)N2CCCC2)cc1 | 5.9 | -0.9 | -0.8 | nt | -10.3%
Brc1c(CSc2nc3ccccc3o2)nc2ncccn12 | -1.2 | -1.8 | -41.7 | -1.2 | -5.3%
O=C(NC(=S)NC1CCCC1)c1ccccc1Br | -0.6 | -0.8 | -11.7 | 5.1 | 4.3%
CCCN(CCC)c1nc(Cl)nc(NCCN2CCOCC2)n1 | 4.8 | 8.0 | nt | 1.2 | -4.3%
Further compounds
SMILES | Arbovirus inh | RecA intein inh | YopH PTP inh | Mtb bLac sens | Mtb H37Rv | others
C=CCn1c(COc2ccc(F)cc2)nnc1SCC(=O)NC1CCCC1 | nt | -1.9 | nt | 3.3 | nt
CN(C)C(=O)c1c2c(nc3ccccc13)-c1ccccc1CC2 | 5.6 | -2.7 | -33.6 | 0.4 | -7.1%
O=[N+]([O-])c1ccc(/C=N/n2c(-c3cccnc3)n[nH]c2=S)cc1 | 2.7 | -0.9 | -17.6 | -1.3 | 2.2%
O=C(CN1CCOCC1)Nc1ccccc1Cl | 2.7 | 1.5 | -23.7 | 3.0 | -8.3%
CC(C)(C)OC(=O)N1CCC(C(=O)N2CCCCCC2)CC1 | 3.3 | -1.0 | -26.1 | -4.7 | -8.6%
Cn1ncc(Br)c1NC(=O)Nc1ccc(OC(F)(F)F)cc1 | nt | -0.3 | nt | -6.7 | 5.8%
Cc1cccc(N2CCN(C(=O)NC3CCCCC3)CC2C)c1 (stereo not given) | nt | -3.2 | nt | 6.2 | nt
O=C(Nc1ccc(N2CCCCC2)c(C(=O)O)c1)c1ccco1 | 6.8 | -1.1 | -11.1 | 43.5 | 3.7%
CCc1n[nH]c(=S)n1/N=C/c1ccc(NC(C)=O)cc1 | 3.7 | -3.7 | nt | -4.5 | -2.2%
CN1CCN(c2cccc3c2C(=O)c2ccccc2C3=O)CC1 | -24.6 | -5.5 | 2.9 | nt | 12.7%
Nc1scc(-c2ccncc2)c1Cl | -3.1 | 2.6 | 28.9 | -6.9 | 5.32µM*
COc1ccc(-n2cnc3cc(NS(=O)(=O)c4ccccc4)ccc32)cc1 | -1.8 | 0.7 | -6.2 | -1.9 | 14.4%
COc1ccc(C2CC(c3cccc(C)c3)n3ncnc3N2)cc1 (stereo not given) | -2.2 | 0.5 | 1.3 | ? | -7.8% | Arbovirus inh repeat=0.0
Cc1ccccc1CN(C)CCc1ccccn1 | 0.3 | -0.5 | nt | -1.2 | 3.0%
CC1CCN(S(=O)(=O)N2CCC(C(=O)NC3CCCC3)CC2)CC1 | 0.5 | 1.1 | nt | -1.6 | -1.9%
Cc1ccc(S(=O)(=O)NC(=O)Nc2ccc(OC(F)F)cc2)cc1 | nt | 0.0 | nt | 2.6 | 3.2%
Cc1cccc(NS(=O)(=O)c2cccc(C(=O)NCC(c3ccco3)N3CCCCC3)c2)c1 (stereo not given) | nt | -4.8 | nt | -7.7 | nt
C/C(CCc1ccc2c(c1)OCO2)=N\NC(=O)c1ccccc1 | 1.9 | -1.8 | -17.1 | 8.7 | 10.1%
COc1cccc(CNC(=O)Cc2ccc(S(=O)(=O)N3CCOCC3)s2)c1 | nt | -1.4 | nt | -10.5 | nt
CN(C)CC(CCCCC(CN(C)C)C(=O)c1ccccc1)C(=O)c1ccccc1 (stereo not given) | nt | -1.5 | nt | -0.8 | -14.8%
Cc1c(C(=O)Nc2ccncc2)oc2c1C(=O)CC(C)(C)C2 | -4.7 | -0.4 | -16.9 | -3.7 | -4.0%
Cc1ccccc1C(=O)NC(CC(C)C)C(=O)OCc1cc(=O)n2cc(Br)ccc2n1 (stereo not given) | 6.2 | 0.3 | -28.3 | 5.0 | 8.3%
CC(=O)Nc1ccc(NC(=O)Cc2ccc(-c3ccccc3)cc2)cc1 | nt | -1.5 | nt | -2.6 | nt
Cc1ccccc1Cn1cnc2c(oc3ccccc32)c1=O | -23.1 | 1.6 | nt | -3.2 | -0.1%
Cc1ccc(S(=O)(=O)NC2=NCN(Cc3cccnc3)CN2)cc1 | 5.5 | -0.4 | -15.0 | 2.6 | -8.5%
CCC1CCCCN1C(=S)NC(=O)c1ccc(F)c(S(=O)(=O)N2CCOCC2)c1 (stereo not given) | 17.0 | 1.2 | nt | 2.8 | -3.3%
Cc1ccc(C(=O)OC/C(O)=C(\C#N)c2nc3ccccc3[nH]2)cc1S(=O)(=O)N1CCOCC1 | -5.5 | -1.7 | -8.2 | 3.9 | 12.1%
Clc1ccccc1CSC1=NCCCN1 | 5.2 | 0.5 | -16.6 | -6.3 | 0.5%

Compounds listed so far containing two or more sulfur atoms:
SMILES | Arbovirus inh | RecA intein inh | YopH PTP inh | Mtb bLac sens | Mtb H37Rv | others
COCC(=O)Nc1ccc(S(=O)(=O)Nc2nccs2)cc1 | nt | 0.0 | nt | 5.6 | nt
COc1ccc2nc(NC(=O)CSc3n[nH]c(N)n3)sc2c1 | nt | -0.7 | nt | 6.3 | nt
O=c1[nH]nc(Sc2ncnc3sccc23)n1CCc1ccccc1 | -8.8 | 31.4* | -2.8 | 0.9 | nt
Cc1ccccc1N1CCN(S(=O)(=O)c2nnc(NC(=O)CC(C)C)s2)CC1 | nt | 0.3 | nt | -3.0 | nt
CC(C)C(=O)Nc1nnc(SCC(=O)NCC2CCCO2)s1 (stereo not given) | -4.3 | -0.6 | nt | -0.8 | 4.2%
CSc1ccc(CCNC(=O)c2ccc(CS(=O)Cc3ccc(Cl)cc3)o2)cc1 (stereo not given) | nt | 1.1 | nt | 97.7 | nt
CN(C)CCCN(C(=O)c1ccc(S(=O)(=O)N2CCc3ccccc32)cc1)c1nc2c(Cl)cccc2s1 | nt | 16.6 | nt | 9.2 | nt
c1csc(-c2csc3nc(CN4CCOCC4)nc(NCc4ccc5c(c4)OCO5)c23)c1 | -31.6 | 17.9 | -11.5 | ? | -6.2%
COc1cccc(CNC(=O)Cc2ccc(S(=O)(=O)N3CCOCC3)s2)c1 | nt | -1.4 | nt | -10.5 | nt
CCC1CCCCN1C(=S)NC(=O)c1ccc(F)c(S(=O)(=O)N2CCOCC2)c1 (stereo not given) | 17.0 | 1.2 | nt | 2.8 | -3.3%
